Source: PubChem (National Center for Advancing Translational Sciences (NCATS))
StopGo reporter – High Throughput Screening for Foot and Mouth Disease Virus Antivirals; human cells with a luciferase reporter of 2A StopGo recoding; control for the full effect not named in the record; Potency, µM (titrated, usually from 57.9 µM), for the others: at the highest dose signal change, negative = less light; actives 1.2% (n = 410,000); active = well fitted falling curve with a large enough effect; inconclusive = small, poorly fitted or top-dose-only effect; inactive = no such curve, though single readings can be large or run the other way; tested in HEK293T cells; note: % is set by controls: 0 for no effect and ±100 for the full control effect; nearly all actives have a fitted effect of over 45% in size; luciferase light after 4 h
Cruzain noTriton – qHTS Assay for Promiscuous and Specific Inhibitors of Cruzain (without detergent); Potency, µM, for the others: max response, negative = inhibition, hits mostly inhibitors; actives 2.3% (n = 200,000); purified cruzain, Z-FR-AMC fluorescence, no detergent; Cruzipain (Trypanosoma cruzi), P25779; AID 1476, 2009; active = well fitted curve in the direction sought with a large enough effect; inconclusive = small, poorly fitted or top-dose-only effect, or another doubt; inactive = no such curve, though single readings can be large; an effect the other way counts as inactive or inconclusive;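 note: plate controls were enzyme without inhibitor for no effect and buffer without enzyme for full effect; nearly all actives have a fitted effect of over 40% in size; top concentration of the series not given in the record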
Target sequence (P25779 123-467 limits assumed): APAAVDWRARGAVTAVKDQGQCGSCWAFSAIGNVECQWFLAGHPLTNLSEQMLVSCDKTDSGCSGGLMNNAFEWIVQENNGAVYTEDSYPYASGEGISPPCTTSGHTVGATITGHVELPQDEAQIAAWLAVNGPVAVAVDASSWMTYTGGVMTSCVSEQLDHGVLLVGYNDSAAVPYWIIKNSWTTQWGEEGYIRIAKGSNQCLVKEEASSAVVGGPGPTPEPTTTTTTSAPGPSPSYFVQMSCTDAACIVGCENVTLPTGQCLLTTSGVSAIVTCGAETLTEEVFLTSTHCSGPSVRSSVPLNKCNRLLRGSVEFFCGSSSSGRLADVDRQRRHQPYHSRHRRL
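Purified cruzain at 1.5 nM, pre-incubated 15 min with compound at room temperature in 100 mM sodium acetate pH 5.5, 5 mM DTT, 0.00005% Triton X-100. Reaction started with 2 uM Z-FR-AMC; AMC fluorescence increase over 60 s gives rate.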
NS1 function inh – qHTS Assay for Inhibitors of Influenza NS1 Protein Function. S. cerevisiae slowed by influenza A NS1, growth recovery by OD600. Potency, µM (titrated, usually from 46.1 µM), inactives show top-dose activity, positive = more growth. actives 0.4% (n = 270,000); note: actives are rising curves; nearly all actives have a fitted effect of over 50% in size
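Read-out: OD600 growth recovery of NS1-expressing budding yeast. Cells grown overnight at 30C in -URA glucose medium, washed, resuspended and diluted 1:100 in 2% galactose assay medium, pH 6.0. Same strain lacking NS1 served as positive control.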
SARS PLpro yeast – qHTS of Yeast-based Assay for SARS-CoV PLP. actives 0.19% (n = 330,000). Potency, µM (doses to about 32.9 µM), without a hit: at the top dose activity, positive = growth rescue. S. cerevisiae expressing SARS-CoV PLpro, growth rescue; control for the full effect not named in the record; note: 0% is about no effect; nearly all actives have a fitted effect of over 55% in size; growth read by luminescence after 48 h
Cruzain Triton – qHTS Assay for Promiscuous and Specific Inhibitors of Cruzain (with detergent); purified cruzain, Z-FR-AMC fluorescence, 0.01% Triton; AID 1478, 2009; actives 0.43% (n = 200,000); Potency, µM, for the others: max response, negative = inhibition, most hits filed as inhibitors; Cruzipain (Trypanosoma cruzi), P25779; active = well fitted curve in the direction sought with a large enough effect; inconclusive = small, poorly fitted or top-dose-only effect, or another doubt; inactive = no such curve, though single readings can be large; an effect the other way counts as inactive or inconclusive;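 note: plate controls were neutral wells for no effect and buffer without enzyme for full effect; nearly all actives have a fitted effect of over 40% in size; top concentration of the series not given in the record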
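Detergent-containing arm of a paired screen for aggregation-based inhibition: 0.01% Triton X-100 present. Cruzain at 1.5 nM cleaved 2 uM Z-FR-AMC at pH 5.5 with 5 mM DTT; AMC fluorescence gain over 60 s measured activity.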
MARV entry inh – qHTS for inhibitors of binding or entry into cells for Marburg Virus; Marburg virus pseudotyped entry inhibition, cell reporter; control for the full effect not named in the record; about a third of the inactives were read at about 46 µM; Potency, µM (doses to about 37.8 µM), without a hit: at the highest dose activity change, negative = inhibition, hits mostly inhibitors; actives 1.8% (n = 300,000); AID 540276, 2011; active = well fitted inhibition curve with a large enough effect; inconclusive = small, poorly fitted or top-dose-only effect, or effect the other way; inactive = flat fitted curve, though single readings scatter; tested in HEK293 cells; about a fifth of its hits are not listed in these tables; note: % is set by controls: 0 for no effect and ±100 for the full control effect; luciferase read-out
RE007 growth inh – qHTS Assay for Inhibitors of the HIV-1 protein Vpr; Potency, µM (series often up to 92.2 µM), without a hit: at the top dose activity change, negative = less growth; actives 0.21% (n = 360,000); AID 651644, 2012; S. pombe RE007 Vpr strain, BacTiter-Glo ATP luminescence, 24 h; control for the full effect not named in the record; active = well fitted falling curve with a large enough effect; inconclusive = small, poorly fitted or top-dose-only effect; inactive = no such curve, though single readings can be large or run the other way;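 note: % is set by controls: 0 for no effect and ±100 for the full control effect; nearly all actives have a fitted effect of over 50% in size; the assay follows cell death caused by Vpr and the record does not say whether a fall means rescue or toxicity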
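Fission yeast strain RE007, carrying one chromosomally integrated HIV-1 vpr copy, was seeded at OD 0.01 in PMG+AL medium with 23 nL pinned compound. After 24 h at 30 °C and 99% humidity, viability was read by BacTiter-Glo luminescence.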
LASV entry inh – qHTS for Inhibitors of binding or entry into cells for Lassa Virus; Lassa virus pseudotype entry inhibition, cell reporter; control for the full effect not named in the record; Potency, µM (top dose mostly 37.9 µM), inactives show top-dose activity change, negative = inhibition, hits mostly inhibitors; actives 1.2% (n = 300,000); AID 540256, 2011; active means well fitted inhibition curve with a large enough effect; inconclusive means small, poorly fitted or top-dose-only effect, or effect the other way; inactive means flat fitted curve, though single readings scatter; tested in HEK293 cells; note: % is set by controls: 0 for no effect and ±100 for the full control effect; nearly all actives have a fitted effect of over 50% in size; luciferase read-out
Starred values were filed as active, the others as inactive; ? = inconclusive; · = not tested or not shown; & = joins results of further samples; [ ] = another dose, or the depositor's remark. Unless noted, calls come from the whole dose curve; as a rule, active means well fitted rising curve with a large enough effect; inconclusive means small, poorly fitted or top-dose-only effect; inactive means no such curve, though single readings can be large or run the other way. Potency is the fitted concentration of half-maximal effect.

molecule	StopGo reporter	Cruzain noTriton	NS1 function inh	SARS PLpro yeast	Cruzain Triton	MARV entry inh	RE007 growth inh	LASV entry inh
CC(C)C(=O)Nc1ccc(S(=O)(=O)N2CCC(c3nc4ccccc4[nH]3)CC2)cc1	-10%	·	·	1%	·	-1%	-11%	2%
Cc1cc(C)c(C)c(C(=O)CSc2nnc(C)c(=O)[nH]2)c1C	·	-13%	2%	4%	2.4%	2%	·	·
COc1ccc(C2CC(c3cccs3)=NN2C(=O)CSC2=NCCS2)cc1 (stereo not given)	2%	·	21%	-1%	·	·	16%	·
CC(=O)NCCSC(=O)c1ccc(F)cc1	68%[activator]	-5%	0%	10%	3.9%	9%[46.1 µM]	1%	17%
Cc1ccc(C)c(S(=O)(=O)N2CC(=O)N(CCc3ccccc3)C(=O)C2)c1	-11%	8%	3%	-7%	-2.7%	?	21%	?
CC(NC(=O)CSc1nc(-c2cccc(Cl)c2)nc2cc(=O)[nH]n12)c1nc2ccccc2n1C (stereo not given)	-19%	-11%	·	·	3.4%	·	·	-5%[46.1 µM]
O=C(CC1SCCNC1=O)Nc1ccccc1Cl (stereo not given)	34%[activator]	·	·	0%	·	-21%[46.1 µM]	-22%	5%
S=C(Nc1ccc(Br)cc1)N1CCN(C2CCCCC2)CC1	63%[activator]	0%	3%	1%	-1.6%	2%	-9%	?
O=C(CCc1nc(-c2ccccc2)no1)NCc1cccnc1	-14%	11%	-11%	-11%	2.8%	3%	-13%	18%
COC(=O)N/N=C/c1cn(CCOc2cccc(OC)c2)c2ccccc12	-13%	·	5%	-4%	·	·	2%	·
Cc1nc(CS(=O)c2ccccc2)cc(N2CCOCC2)n1 (stereo not given)	-12%	8%	3%	0%	2.0%	10%	9%	8%
Cc1ccc(CNC(=O)C(=O)Nc2nccs2)cc1	30%[activator]	·	8%	0%	·	·	2%	·
CCOC(=O)c1ccc(NC(=O)N2CCN(c3ccccn3)CC2)cc1	?	0%	·	-2%	2.4%	-11%	9%	25%
O=C(NCc1ccc(Cl)cc1Cl)Nc1ccccc1	72%[activator]	·	·	·	·	-13%	11%	?
CCC(=O)N1CCN(c2ccccc2NC(=O)c2cccc(C)c2)CC1	·	4%	-15%	-3%	1.7%	12%	-2%	4%
c1ccc(Cc2nnc(Sc3ccccc3)c3ccccc23)cc1	?	1%	4%	-5%	-5.2%	-28%	-7%	-16%
N#CC(c1ccc(Cl)nn1)c1c(F)cccc1Cl (stereo not given)	33%[activator]	·	3%	-1%	·	?	7%	-41%[46.1 µM]
COC(=O)c1ccccc1Oc1c(F)c(F)nc(N2CCOCC2)c1F	·	0%	-31%	-12%	-8.0%	?	-7%	-1%
CCCOc1ccc(C(=O)NCC(c2ccco2)N(C)C)cc1OC (stereo not given)	-21%	-1%	3%	12%	-2.0%	9%	-1%	-11%
CC(=O)c1cccc(NC(=O)N2CCCc3ccccc32)c1	18%	-7%	-10%	-5%	-1.9%	?	13%	6%
CC(=O)Nc1ccc(CN2CCCC(CO)(Cc3cccc(Cl)c3)C2)cc1 (stereo not given)	-8%	·	-3%	0%	·	·	1%	·
O=Cc1c(SCCO)nc2ccccn2c1=O	-13%	·	3%	0%	·	·	-3%	·
CCOC(=O)C1CCN(C(=O)CN(c2ccc(Cl)c(C(F)(F)F)c2)S(C)(=O)=O)CC1	-7%	?	?	-1%	3.9%	0%&0%	-10%	-19%
N=C1S/C(=C\c2ccc(O)cc2)C(=O)N1c1ccc(F)cc1	8%	·	·	2%	·	?	12%	?
CCCOc1ccc(N2C(=O)CC(NCc3cccs3)C2=O)cc1 (stereo not given)	-9%	-7%	-6%	-21%	-2.2%	0%	-12%	-5%
O=C(NCC(c1cccnc1)N1CCN(c2ccc(F)cc2)CC1)c1cccc(Cl)c1 (stereo not given)	25µM*	-1%	-81%	-12%	-14%	?	7%	-20%
Cc1c(N(C)S(=O)(=O)c2cc(C(=O)N3CCCC3)ccc2Cl)c(=O)n(-c2ccccc2)n1C	8%	·	14%	4%	·	14%	-11%	-1%
COc1ccc2c(Cl)c(C(=O)N/N=C/c3cccnc3)sc2c1	10%	·	4%	1%	·	-26%[46.1 µM]	-13%	?
CCOC(=O)N1CCN(C(=O)COc2cc(C)c(Cl)c(C)c2)CC1	-7%	·	-8%	0%	·	?	0%	-17%
COCCNC(=O)Cn1c(=O)oc2cc(S(=O)(=O)N3CC(C)CC(C)C3)ccc21 (stereo not given)	-2%	·	4%	1%	·	-1%[46.1 µM]	3%	-7%[46.1 µM]
N/C(=N\OC(=O)CCCc1ccccc1)c1cccc([N+](=O)[O-])c1	-14%	-29%	-28%	-58%	-6.5%	7%	-6%	4%
COc1cc(C2NC(=O)NC(c3ccccc3)=C2C(C)=O)cc(Cl)c1OCC(=O)O (stereo not given)	-3%	·	·	1%	·	-2%[46.1 µM]	2%	5%
CN(C)c1ccc(/C=C/c2nc3ccccc3s2)cc1	5µM*	?	1%	-2%	-1.1%	2µM*	?	2.2µM*
COc1cc(N2CCCC2)c(OC)cc1/C=C(/C#N)c1ccc(F)cc1	?	-29%	2%	-6%	-8.2%	?	19%	?
COCCn1c(=O)[nH]c2cc(C(=O)NCc3ccccc3)ccc2c1=O	4%	1%	-1%	4%	0.6%	?	-8%	-20%
C/C(=N\NC(=O)CSCc1cccc(Br)c1)c1ccc([N+](=O)[O-])cc1	7%	-17%	0%	-8%	-5.5%	0%	-19%	19%
CCOC(=O)N1CCN(Cc2c(O)ccc3ccccc23)CC1	0%	·	1%	2%	·	10%[46.1 µM]	-20%	-17%[46.1 µM]
CCOc1ccc(NC(=O)C2CCCN(c3nnc(-n4c(C)ccc4C)s3)C2)cc1 (stereo not given)	-21%	7%	·	·	-5.2%	-12%[46.1 µM]	·	?
CCN(CC)C(=O)CSc1nc(C)cc(-c2cccs2)c1C#N	·	3%	1%	-10%	-1.1%	-3%	4%	?
O/N=C1\CCCc2oc3c(c21)CCCC3	-20%	3%	-14%	-5%	1.7%	-10%	-12%	-2%
CC(C)C(=O)Nc1cccc(-c2nc3ccccc3o2)c1	8%	14%	-16%	24%	8.7%	9%	-20%	5%
Cn1c(=O)c2[nH]c(-c3ccccc3)c(O)c2n(C)c1=O	-24%	-5%	5%	-1%	-1.9%	-6%	-7%	3%
CC(=O)c1cccc(NC(=O)CSc2ccc(-c3cccnc3)nn2)c1	-30%	·	·	·	·	-23%	-9%	16%
CCN(CC)CCNC(=S)Nc1ccc2nc(N3CCCC3)cc(C)c2c1	-12%	·	·	-7%	·	4.1µM*	-6%	?
CCNc1nc(OC)nc(SCC(=O)Nc2ccccc2)n1	-7%	·	0%	3%	·	·	1%	·
Cc1cc(N2CCC(C(=O)NC3CC3)CC2)nc(-c2ccccc2)n1	-27%	-6%	-1%	-7%	4.9%	-5%[46.1 µM]	-3%	4%
Cc1ccc(-c2cc(C(=O)NCc3cn(C)nc3C)c3cc(Br)ccc3n2)cc1	16%	21%	9%	-3%	-4.7%	7%	9%	14%
Cc1ccc(C2=Nc3ccccc3NC(c3ccncc3)=N2)cc1	?	1%	·	·	-2.2%	-17%[46.1 µM]	·	10%[46.1 µM]
CC(=O)C1=C(O)C(=O)N(c2ccc(O)cc2)C1c1ccc(Cl)cc1 (stereo not given)	0%	·	3%	?	·	·	-2%	·
Fc1cnc(N2CCN(c3ccccc3)CC2)nc1N1CCN(c2ccccc2)CC1	20µM*	-28%	18%&-6%	-9%	-9.3%	?	-9%	?
CC1CCN(C(=O)COC(=O)c2cccc(S(=O)(=O)N(C)c3ccccc3)c2)CC1	?	·	·	2%	·	?	2%	14%
O=C(Nc1ccc(F)cc1F)c1noc2c1CCC2	61%[activator]	-9%	-1%	-7%	-2.3%	0%	?	?
COc1ccc(C(=O)NC(=S)N2CCC(C)CC2)cc1	23%	1%	-11%	?	1.1%	?	-9%	14%
COc1ccc(CN2COc3ccc4c(-c5ccccc5)cc(=O)oc4c3C2)cc1OC	-12%	?	·	·	-16%	-28%[46.1 µM]	·	8%[46.1 µM]
CCOc1ccc(C(=O)Nc2nnc(C(C)C)s2)cc1OCC	30%	7%	-1%	-7%	2.0%	2%	-1%	?
CCCS(=O)(=O)N1CCC(C(=O)NCCc2ccc(OC)c(OC)c2)CC1	-17%	-3%	2%	2%	8.4%	2%	9%	1%

Additional compounds
molecule	StopGo reporter	Cruzain noTriton	NS1 function inh	SARS PLpro yeast	Cruzain Triton	MARV entry inh	RE007 growth inh	LASV entry inh
O=C1CSC(c2cccnc2)N1Cc1cccnc1 (stereo not given)	-5%	·	0%	0%	·	·	11%	·
CCC(C(=O)NCCCN1CCCCCC1)n1nc(C)c2sc3ccccc3c2c1=O (stereo not given)	-8%	·	0%	6%	·	·	-3%	·
CCOC(=O)C1CCN(C(=O)CCc2ccccc2)CC1	-19%	-10%	-11%	3%	-0.2%	1%	-5%	9%
CCOc1ccc(S(=O)(=O)NCc2cccnc2)cc1C(C)C	85%[activator]	·	2%	0%	·	?	3%	0%
Cc1cccc(N(C(=O)c2sc(C)nc2C)C(C(=O)NCc2ccco2)c2ccccc2)c1 (stereo not given)	·	?	-8%	4%	-1.0%	-17%	7%	?
O=c1[nH]c(Cc2ccccn2)nc2scc(-c3ccc(Cl)cc3)c12	-28%	·	14%	0%	·	-3%[46.1 µM]	-10%	7%[46.1 µM]
